# StopGo FLuc: Primary qHTS Assay for Foot and Mouth Disease Virus Antivirals against NCGC Sytravon and CBC Compound Libraries: Firefly Luciferase Signal. HEK cells with a luciferase reporter of 2A StopGo recoding. AID 1745856, 2022. Potency, µM (series often up to 57.5 µM), without a hit: at the highest dose signal change, negative = less light. hit rate 0.23% among 120,000; active = well fitted falling curve with a large enough effect; inconclusive = small, poorly fitted or top-dose-only effect; inactive = no such curve, though single readings can be large or run the other way; further: nearly all actives have a fitted effect of over 60% in size; overnight with compound
# StopGo RLuc: Primary qHTS Assay for Foot and Mouth Disease Virus Antivirals against NCGC Sytravon and CBC Compound Libraries: Renilla Luciferase Signal. HEK cells with a luciferase reporter of 2A StopGo recoding. Potency, µM (titrated, usually from 57.5 µM), without a hit: top-dose signal change, negative = less light. hit rate 0.32% among 120,000. AID 1745857, 2022; active means well fitted falling curve with a large enough effect; inconclusive means small, poorly fitted or top-dose-only effect; inactive means no such curve, though single readings can be large or run the other way; further: nearly all actives have a fitted effect of over 55% in size; overnight with compound
# * hit, by the source's call; u = inconclusive; & = joins results of further samples; [ ] = dose if it differs, or a comment. On the % scale 0 is the no-effect control and ±100 the full control effect; potency means the concentration at half of the fitted maximal effect.
1. CCOC(=O)c1c(NC(=O)c2ccc(S(=O)(=O)N3CCC(C)CC3)cc2)sc2c1CCN(C(C)C)C2
2. COc1cc(C2C(C(=O)OC(C)C)=C(C)N=C3SCCC(=O)N32)ccc1OCc1ccccc1 (centres undefined)
3. COc1ccc(-c2n[nH]c3c2cnc2ccc(F)cc23)cc1
4. O=C(OCc1cc(=O)oc2cc3c(cc12)CCC3)C1CCCO1 (centres undefined)
5. Fc1ccc(Cn2c(-c3cccc(Br)c3)nc3ccccc32)cc1
6. CCN(c1ccc2sc(C(=O)NCCC(C)C)cc2c1)S(C)(=O)=O
7. CCCCCCCCN1CCS(=O)(=O)N(Cc2ccc(Cl)cc2)C(C(=O)OC)C1 (centres undefined)
8. Cc1cc(-c2noc(COc3ccc(I)cc3)n2)c2ccccc2n1
9. CCOC(=O)C1CCCN(S(=O)(=O)c2cc3c4c(c2)CC(=O)N4CCC3)C1 (centres undefined)
10. CCCc1ccc(S(=O)(=O)N2CCC(c3nnnn3-c3ccc(OC)cc3)CC2)cc1
entry no.	1	2	3	4	5	6	7	8	9	10
StopGo FLuc	-8%	-15%	32%	13%	-11%	u	14%	-14%	0%	-7%
StopGo RLuc	-11%	-13%	-1%	-14%	8%	25µM*	7%	-20%	3%	-3%

11. COC(=O)CN1CCCC1c1cccs1 (centres undefined)
12. CCOc1ccc(NC(=O)c2c(NCc3sccc3C)sc3c2CCCCC3)cc1
13. COC(=O)C(=O)CC(=O)c1ccc(N2CCOCC2)cc1
14. COc1cc(/C=C(/C#N)c2ccc(C(F)(F)F)cn2)ccc1O
15. Cc1cccc(-c2nc3c4ccccc4nc(N4CCN(c5cc(C)ccc5C)CC4)n3n2)c1
16. COc1ccc(NC(=O)COC(=O)c2n[nH]c3ccccc23)cc1
17. COc1cccc(N2Cc3nc(=O)n(CC(=O)NCc4ccccc4)n3C2=O)c1
18. Cc1c(C(=O)OCc2ccc(C#N)cc2)oc2ccccc12
19. CCCCOCCCNC(=O)CCSc1ccccc1
20. CCOc1ccccc1NC(=O)C1CCN(S(=O)(=O)Cc2ccccc2)CC1
entry no.	11	12	13	14	15	16	17	18	19	20
StopGo FLuc	1%	9%	53%[activator]	21%	32%[activator]	0%	6%	78%[activator]	3%	-14%
StopGo RLuc	-11%	-6%	0%	-6%	-5%	-1%	-10%	23%	9%	-2%

21. N#Cc1nc(COc2ccccc2F)oc1NCc1cccnc1
22. CC(=O)c1cc2c(cc1NC(=O)CSc1nnc(C3CCCCC3)o1)OCO2
23. CC(C)c1cccc(NC(=O)c2cccc(CS(C)=O)c2)c1 (centres undefined)
24. COc1ccc(CCNC(=O)c2ccc3c(c2)N(Cc2ccccc2Cl)C(=O)c2ccccc2S3)cc1OC
25. O=C(Cn1c(=O)nc(-c2ccccc2)c2ccccc21)NCc1ccc(Cl)cc1
26. O=C(NCc1cccs1)c1cc2ccccc2oc1=O
27. Cc1cc(/C=C(/C#N)C(N)=O)c(C)cc1/C=C(/C#N)C(N)=O
28. CC(Oc1ccc(-c2ccccc2)cc1)C(N)=O (centres undefined)
29. CCCNC(=O)c1cccc2c(=O)c(C)c(-c3ccccc3)oc12
30. CC(=O)NC12CC3CC(C1)CC(C(=O)NCC1CC1)(C3)C2
entry no.	21	22	23	24	25	26	27	28	29	30
StopGo FLuc	18%	-1%	0%	-12%	-3%	36%[activator]	3%	172%[activator]	0%	11%
StopGo RLuc	-7%	3%	19%	1%	-2%	7%	-2%	4%	22%	0%

31. Cc1cccc(CNC(=O)CN2C(=O)CCCc3ccccc32)c1
32. O=C(CSc1nc2ccccc2c(=O)[nH]1)NC1CCCCC1
33. CCn1ccc(C(=O)Nn2c(C)nc3sc4c(c3c2=O)CCC(C)C4)n1 (centres undefined)
34. Cc1cc(C)c(NC(=O)Cn2cnc3c2c(=O)n(C)c(=O)n3C)c(Cl)c1
35. CSc1ncc(C(=O)N2CCN(c3cc(Cl)ccc3C)CC2)c(C)n1
36. CCc1nnc(NC(=O)c2nc(SCc3cccc(C)c3)ncc2Cl)s1
37. CCC(C)[C@H](NC(=O)Nc1ccc2oc(-c3cccnc3)nc2c1)C(=O)OC (some centres undefined)
38. CCCOc1cccc(C2c3c(-c4ccccc4O)n[nH]c3C(=O)N2Cc2ccco2)c1 (centres undefined)
39. CCN(Cc1ccc(OC)c(OC)c1)C(=O)c1oc2ccc(Cl)cc2c1C
40. CN(Cc1ccc(C(=O)NCC(F)(F)F)cc1)C(=O)c1cccc(Cl)c1
entry no.	31	32	33	34	35	36	37	38	39	40
StopGo FLuc	8%	67%[activator]	16%	-5%	u	-9%	154%[activator]	u	-5%	1%
StopGo RLuc	-5%	5%	-9%	-7%	u	-8%	10%	1%	-33%	13%

41. COc1ccccc1CNC(=O)c1nc(COc2c(C)occc2=O)no1
42. CCCCNc1nc2c(-c3cccc(Br)c3)nnn2c2ccccc12
43. CCOC(=O)CSc1nc2c(sc3cccc(F)c32)c(=O)n1Cc1ccc(OC)cc1
44. Cc1ccccc1NC(=O)CN(C)C1=NS(=O)(=O)c2ccccc21
45. CCCCNc1oc(-c2ccc(COc3ccccc3C)o2)nc1C#N
46. COC(=O)c1ccc(NC(=O)N2CCC(CN3CCc4ccccc4C3)CC2)cc1
47. CC(Cc1ccccc1)NCCCCl (centres undefined)
48. Cc1ccc(NC(=S)NN)cc1
49. CCc1cc(C(=O)NCc2ccc(F)cc2)no1
50. O=C(Nc1ccccc1C(F)(F)F)c1noc2c1CCCCC2
entry no.	41	42	43	44	45	46	47	48	49	50
StopGo FLuc	17%	0%	-19%	-9%	9%	12%&3%	-23%	0%	79%[activator]	0%
StopGo RLuc	10%	-4%	-8%	-8%	7%	-13%&-9%	-13%	45%[activator]	-2%	-9%

# Additional structures
cpd	structure	StopGo FLuc	StopGo RLuc
51	CCOC(C)C(=O)NCCSCc1cccs1 (centres undefined)	53%[activator]	6%
52	Cc1cc(C)n(-c2nc(C)c(C)c(=O)n2CC(=O)Nc2ccc(Cl)c(Cl)c2)n1	-12%	-10%
53	Cn1c(=O)c2c(nc(N3CCC(C(N)=O)CC3)n2CCCc2ccccc2)n(C)c1=O	15%	17%
54	Clc1cccc(-c2csc(-c3nc(-c4ccc(Br)s4)cs3)n2)c1	-12%	-11%
55	O=C(O)c1ccc(Br)cc1	19%	1%
56	Cc1[nH]c2ccc(F)cc2c1CC(=O)NCC(C)C	1%	26%
57	c1ccc(-c2nnc(CN3CCN(c4ccccn4)CC3)o2)cc1	8%	-1%
58	Cc1coc2cc3oc(=O)c(CCC(=O)NCc4ccccc4Cl)c(C)c3cc12	69%[activator]	11%
59	CCOC(=O)c1ccc(NC(=O)C(CC)Sc2nnc3c4ccccc4n(C)c3n2)cc1 (centres undefined)	-10%	-11%
60	Cc1cn2c(=O)c(S(=O)(=O)Nc3ccc(N4CCOCC4)cc3)c(C)nc2s1	-5%	20%
61	Cc1oc(-c2ccccc2)nc1C(=O)Nc1ccc(F)c(C(N)=O)c1	11%	7%
62	O=C(NC1CCCC1)c1cccc2ncccc12	0%	-2%
63	CCCNC(=O)CCC(=O)N1CCCn2nc(-c3cn(C)c4ccccc34)cc21	14%	1%
64	CCOc1ccc(CCNc2nc3c(-c4ccc(C)cc4)nnn3c3ccccc23)cc1OCC	28%	-7%
65	O=C(NCc1ccccc1Cl)c1cnc2sc(N3CCOCC3)nn2c1=O	3%	-9%
66	O=C(Nc1ccc2c(ccn2CCN2CCOCC2)c1)C1CC1	18%	-1%
67	Clc1cnc(N/N=C/c2ccc(Br)cc2)c(Cl)c1	63%[activator]	10%
68	CCCC(=O)Nc1ccc(NC(=O)c2sc3ccccc3c2Cl)cc1	20%	-5%
69	O=C(Cn1nc(-c2ccccc2)c2ccccc2c1=O)Nc1ccc(C(=O)N2CCCCC2)cc1	6%	-1%
70	Cc1ccc(NC(=O)CSc2nc3ccccc3c(=O)n2CCC(=O)NC2CCCCC2)cc1C	-25%	-18%
71	COC(=O)CN1CCN(c2nc3c(c(=O)[nH]c(=O)n3C)n2Cc2ccccc2Cl)CC1	4%	-2%
72	C[N+]1(C)C2CCC1CC(OC(=O)C(CO)c1ccccc1)C2 (centres undefined)	-3%	6%
73	COCCn1c(SCC(=O)N(C)CCOc2ccc(Cl)cc2)nnc1-c1ccccc1	1%	0%
74	COc1cc2nc(NCCC(C)C)n3nc(-c4ccccc4)nc3c2cc1OC	-3%	-12%
75	Cn1c(=O)c2c([nH]c(=O)n2Cc2ccccc2F)n(C)c1=O	5%	7%
76	Cc1ccc(CNC(=O)c2oc3ccc(S(=O)(=O)N4CCC(C)CC4)cc3c2C)cc1	-22%	-17%
77	Cc1cc(C)cc(Nc2nc3ccccc3nc2NS(=O)(=O)c2ccc(F)cc2)c1	-10%	-7%
78	O=C(c1ccccc1)n1nc(-c2ccccc2)nc1NCc1ccc(F)cc1	126%[activator]	-8%
79	CCOc1ccc(NC(=O)Cn2c(=O)n(CC3CCC(C(=O)NCCc4ccccc4)CC3)c(=O)c3ccccc32)cc1 (centres undefined)	2%	-1%
80	COc1ccc(CNC(=O)c2nccnc2N)cc1	28%	-19%
81	Cc1cc(NC(=O)COc2cccc(Cl)c2)n(C)n1	12%	16%
82	Cc1cc(-n2c(/C=C/c3cccs3)nc3ccccc3c2=O)ccc1Br	22%	8%
83	CC(NC(=O)c1cc(-c2ccc(Br)cc2)n[nH]1)c1ccc(F)cc1 (centres undefined)	0%	-4%
84	O=C(CC12CC3CC(CC(C3)C1)C2)NCC(=O)OCC(=O)N1CC(=O)Nc2ccccc21	-1%	-5%
85	COc1ccc2[nH]cc(CCNC(=O)C3CCN(c4nc(Cl)nc5nc[nH]c45)CC3)c2c1	34%[activator]	29%
86	CCC(C(=O)Nc1cccc(OC)c1)n1cnc2ccccc2c1=O (centres undefined)	-10%	3%
87	CC(C)NC(=O)CN1CCN(C(=O)c2cc(-c3ccccn3)nc3ccccc23)CC1	0%	26%
88	O=C(Nc1ccc(F)cc1F)C12CC3CC(CC(Cl)(C3)C1)C2	6%	9%
89	CCN(c1ccccc1)S(=O)(=O)c1ccc(C(=O)NC2CC(C)(C)NC(C)(C)C2)cc1	-15%	-18%
90	Cc1cccc(C(C)C)c1NC(=O)c1nn(C)c(=O)c2ccccc12	6%	3%
91	Cc1cccc(C(=O)Nc2nc(-c3nnn(-c4cc(F)ccc4F)c3C)ns2)c1	u	u
92	COc1cc(OC)c2cc(C(=O)Nc3ccccc3)[nH]c2c1OC	40%[activator]	16%
93	CC(C)[C@H](NC(=O)[C@H](C(C)C)n1nnc2ccccc2c1=O)C(=O)O	15%	-9%
94	N#Cc1nc(COc2cccc(Cl)c2)oc1NCc1ccc2c(c1)OCO2	0%	1%
95	CCCCn1c(=O)[nH]c(=O)c2c1nc(CSc1nnc(-c3ccco3)n1C1CCCCC1)n2CC	0%	66%[activator]
96	Cc1ccc(-c2csc3ncnc(Sc4nnc(CN5CCCC5)o4)c23)cc1	u	u
97	CCOc1ccc(CN2CCN(Cc3ccc4c(c3)c3ccccc3n4CC)CC2)cc1	22%	u
98	COc1ccc(C(=O)N(Cc2cc(OC)c(OC)c(OC)c2)C2CCS(=O)(=O)C2)cc1Cl (centres undefined)	-5%	1%
99	O=C(NCC(c1cccs1)N1CCCC1)c1cc2ccccc2oc1=O (centres undefined)	181%[activator]	-3%
100	Cc1cc(N2CCC(C(=O)Nc3ccc(Cl)cc3)CC2)n2nc(C)c(-c3ccc(Cl)cc3)c2n1	-17%	-11%

# (next part)
cpd	structure	StopGo FLuc	StopGo RLuc
101	Cc1ccc(NC(=O)Cn2cc(C(=O)c3ccccc3)c3ccccc32)c(C)c1	22%	10%
102	Cc1ccc2cc(C(=O)NC3CCS(=O)(=O)C3)c(C)nc2c1 (centres undefined)	-10%	-16%
103	COc1ccc(NC(=O)C2CC(=O)Nc3nc(N4CCc5ccccc5C4)[nH]c(=O)c32)cc1 (centres undefined)	-3%	-8%
104	CC(=O)N(C)c1ccc(NC(=O)Cn2cnc3c2c(=O)n(C)c(=O)n3C)cc1	-9%	0%
105	O=C(/C=C/c1ccc2ccc(Cl)cc2n1)NC1CCCCC1	11%	2%[1.06 µM]
106	CC1Oc2ccc(-c3csc(NC(=O)c4ccco4)n3)cc2NC1=O (centres undefined)	u	u

# High-throughput results as filed in PubChem.

# The list is partial; the hit share may differ from the screen's.
